# High-throughput results: PubChem BioAssay, several laboratories
# M17LAP inhibition: P. falciparum M17LAP inhibitors, primary screen, biochemical, fluorogenic H-Leu-NHMec substrate, 1536-well (AID 1619); recombinant M17LAP, H-Leu-NHMec fluorogenic kinetic assay; higher % means a stronger effect; one-dose inhibition, % at 30 µM; IC50 in µM for titrated hits; 220,000 compounds, 0.38% hits;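 active means compound inhibiting the enzyme by more than half at any dose during confirmatory dose-response retesting; inconclusive means strong single-dose inhibitors picked by rank but not retested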;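 further: plate controls were full reaction with DMSO carrier for no effect and no enzyme background for full effect; strong numbers were not always called active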
# XIAP antagonists: XIAP antagonists, biochemical, IAP family, fluorescence polarization (AID 1018); XIAP BIR domain, fluorescence polarization peptide displacement; higher % means a stronger effect; displacement, % at 20 µM; hits with a dose series show IC50 in µM; 200,000 compounds, 0.007% hits; in the data active means displacement above about 50%; further: a part of the inactive calls stands beside numbers as strong as those of hits
# CSM14.1 death rescue: protection against thapsigargin-triggered cell killing – 384-well, CSM14.1, ATP luminescence, primary screen (AID 1222). CSM14.1 thapsigargin-induced death rescue, ATP luminescence; higher % means a stronger effect. one-dose cellular ATP content (survival), % at 20 µM; EC50 in µM for titrated hits. 190,000 tested, under 10 active;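 active means EC50 below 50 µM in the dose-response confirmation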;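 further: death triggered by thapsigargin at about 15 µM added after 2 h compound pretreatment; cell ATP read after overnight thapsigargin exposure of roughly 18 to 22 hours; normalized against plate controls of thapsigargin alone and 5% DMSO vehicle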
# TNAP activators: human TNAP enzyme activators, primary screen, biochemical, luminescent, no phosphate acceptor, uHTS (AID 1001) | purified TNAP, luminescent activation assay, no phosphate acceptor; higher activation fold means a stronger effect | one-dose activation fold at 20 µM; EC50 in µM for titrated hits | 200,000 compounds, 0.03% hits; in the data active means activation fold from about 3, or a potency from the dose series; inactive means the rest, 99 in 100 with activation fold below about 1.6; further: many of its hits are not listed in these tables
# Myeloid diff MLP: promotes myeloid progenitor differentiation; 360,000 compounds, 1% hits; ER-HoxA9 myeloid progenitors, lysozyme-GFP differentiation, flow cytometry; calls only at 10 µM;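 active means normalized GFP-positive differentiation at or above the plate's own cutoff, the solvent-only control mean plus 3 SD; inconclusive means no clear call, values can overlap the other calls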;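 further: cells exposed to compound for four days before flow analysis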
# P. falciparum M1AAP: malaria alanyl aminopeptidase activity blockers – biochemical, fluorogenic H-Leu-NHMec substrate, 1536-well (AID 1445) | one-dose inhibition, % at 30 µM; IC50 in µM for titrated hits | recombinant M1AAP, H-Leu-NHMec fluorogenic kinetic assay; higher % means a stronger effect | 220,000 compounds, 0.42% hits;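 active means primary inhibition above the hit cutoff, then over 50% inhibition at one or more dose response concentrations, cut at about 23% in these data, passing the limit was not always enough; inconclusive means conflicting primary data, or primary hits not chosen for dose response; inactive means low primary inhibition, or under 50% at every dose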;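 further: plate controls were DMSO full reaction for no effect and no enzyme background for full effect; strong numbers were not always called active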
# LYP phosphatase: PTPN22 lymphoid phosphatase activity blockers – biochemical, fluorescence intensity, uHTS (AID 1779); recombinant LYP phosphatase, fluorescence intensity; higher % means a stronger effect; one-dose inhibition, % at 11.5 µM; IC50 in µM for titrated hits; 290,000 compounds, 0.054% hits; in the data active means inhibition above about 50%;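 further: plate controls were vehicle with enzyme for no effect and no enzyme for full effect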
# Myeloid diff MLP GFP+ MAC1+ %: second read-out of Myeloid diff MLP, no call of its own (marks repeat the call); GFP+ MAC1+ double positive, %; measured here: differentiation confirmed by MAC1 staining
# An asterisk follows results filed as active; i = inactive; ? = inconclusive; . = not tested or not shown. Not all compounds are listed (hit frequency here may not be typical).
SMILES,M17LAP inhibition,XIAP antagonists,CSM14.1 death rescue,TNAP activators,Myeloid diff MLP,Myeloid diff MLP GFP+ MAC1+ %,P. falciparum M1AAP,LYP phosphatase
O=S(Cc1ccccc1)CC(O)(c1ccccc1)c1ccccc1 (centres undefined),5.6%,-24.5%,1.9%,1.1,i,0.6,0.6%,-5.6%
COC(=O)c1ccccc1OCCCOc1ccc(C=O)cc1OC,8.5%,-4.2%,0.3%,1,i,0.4,-4.8%,-5.0%
CC1(C)OC(=O)C(=CNn2cnc3ccccc3c2=O)C(=O)O1,-1.4%,-1.4%,0.1%,1,i,9.5,1.6%,-14.6%
COc1ccccc1C(=O)N/C(=C/c1ccccc1)C(=O)NC(CCSC)C(=O)O (centres undefined),18.6%,1.0%,-0.8%,1.1,i,6.9,0.1%,-5.1%
CC1(C)N=C(SCC(=O)Nc2ccccc2)C(c2ccc(Cl)cc2)=N1,11.0%,-4.4%,2.1%,1,i,1.0,0.6%,-1.6%
CN(C)c1ncc(S(=O)(=O)c2ccccc2)c(-c2ccc(Cl)cc2Cl)n1,3.4%,1.1%,-0.4%,1.1,i,1.0,5.2%,-4.7%
Cc1cnc(C(=O)OCC(=O)Nc2ccc(Cl)cc2)cn1,5.7%,-1.6%,-0.3%,1.1,.,.,-6.5%,5.0%
COc1ccc2c(C)cc(SCC(=O)c3ccc4c(c3)OCO4)nc2c1,15.2%,-5.7%,-1.3%,1.1,i,0.6,3.9%,0.5%
Cc1ccc(C2C(C(=O)c3ccco3)=C(O)C(=O)N2c2nnc(C)s2)cc1 (centres undefined),12.2%,-8.2%,1.9%,1,i,0.5,8.3%,1.4%
S=c1[nH]nc(C23CC4CC(CC(C4)C2)C3)n1Cc1ccco1,-12.9%,-1.1%,0.4%,0.8,i,0.5,-2.1%,-2.0%
CCCOc1ccc(-c2nc(C#N)c(NCCCn3ccnc3)o2)cc1,-21.6%,3.5%,0.9%,1,i,1.6,-3.8%,-3.0%
Cc1ccc(NC(=O)NNc2cccc(Cl)n2)cc1,-4.2%,-2.0%,-1.7%,1.1,i,0.1,6.4%,-2.7%
O=S(=O)(Nc1ccc(Cc2ccncc2)cc1)c1ccc(Cl)c(Cl)c1,-7.2%,2.4%,2.9%,1.1,i,0.9,5.4%,0.1%
CC(C)CC(=O)Nc1ccccc1-c1nnn(CC(=O)N2CCc3ccccc3C2)n1,1.4%,-5.0%,2.1%,1.1,i,0.9,3.0%,-4.8%
COC(=O)COc1ccc(Cl)cc1C1Nc2ccccc2C(=O)N1c1ccc(OC)cc1 (centres undefined),7.4%,-3.8%,-1.4%,1.1,i,8.4,18.1%,-2.1%
CC(C)Cc1nc(N2CCN(C(=O)c3ccccc3)CC2)c(C#N)c2c1CCC2,-2.1%,1.2%,1.0%,1.1,i,1.7,6.3%,6.8%
COC(=O)c1ccc(NC(=O)COc2ccc(C3C(C#N)=C(N)Oc4c3ccc3ccccc43)cc2OC)cc1 (centres undefined),-23.8%,-1.8%,1.7%,1.1,i,2.2,3.2%,-3.5%
Cc1ccc(S(=O)(=O)N2CCC(CN3C(=O)c4cccc5cccc(c45)C3=O)CC2)cc1,-5.1%,-2.8%,-0.4%,1.1,i,0.5,0.9%,-1.0%
CN(C)S(=O)(=O)Oc1cccc(C(=O)Nc2ccc(Cl)c(Cl)c2)c1,3.9%,-7.4%,-1.4%,1.1,i,0.0,-8.4%,-5.2%
CC1CCCN(C(C(=O)Nc2ccc3c(c2)OCCO3)c2ccccc2)C1 (centres undefined),-5.1%,-2.5%,-1.3%,1.1,i,0.3,6.1%,-4.9%
Cc1nnc(NCc2ccco2)s1,6.2%,-4.7%,-0.6%,1,i,0.3,-2.6%,-3.5%
C=CCn1c(Cc2ccc(OC)cc2)nnc1SCC(=O)c1cccc([N+](=O)[O-])c1,-2.3%,-3.0%,-2.0%,1,i,2.0,7.4%,-2.9%
Cc1ccc(C(=O)N2CCN(c3ncccn3)CC2)o1,3.7%,-5.4%,-1.4%,1.1,i,1.2,-1.6%,-11.7%
CCCCn1nc2cc(C(=O)NCc3ccc(OC)cc3)ccc2c1OCC,-16.9%,-2.6%,-0.6%,1.1,i,2.4,3.4%,-8.5%
CC(C)NC(=O)c1n[nH]c(=O)c2ccccc12,-0.9%,-2.9%,5.7%,1,i,1.3,5.2%,-6.7%

# As a working copy, part of the list above:
SMILES,M17LAP inhibition,XIAP antagonists,CSM14.1 death rescue,TNAP activators,Myeloid diff MLP,Myeloid diff MLP GFP+ MAC1+ %,P. falciparum M1AAP,LYP phosphatase
O=S(Cc1ccccc1)CC(O)(c1ccccc1)c1ccccc1 (centres undefined),5.6%,-24.5%,1.9%,1.1,i,0.6,0.6%,-5.6%
COC(=O)c1ccccc1OCCCOc1ccc(C=O)cc1OC,8.5%,-4.2%,0.3%,1,i,0.4,-4.8%,-5.0%

# Going on with the list:
SMILES,M17LAP inhibition,XIAP antagonists,CSM14.1 death rescue,TNAP activators,Myeloid diff MLP,Myeloid diff MLP GFP+ MAC1+ %,P. falciparum M1AAP,LYP phosphatase
Cc1ccc(C(=O)CCC(=O)Nc2cccc(C(F)(F)F)c2)cc1,-4.1%,-1.4%,-4.9%,1.1,i,0.4,-5.5%,-3.3%
CS(=O)(=O)N(CC(=O)N/N=C/c1cccs1)c1cccc(Cl)c1Cl,-1.4%,2.9%,-1.8%,1.1,i,0.7,-2.0%,-4.1%
Cc1cc(O)c(/C=N/Nc2ccc(Cl)cc2)c(=O)o1,14.5%,-6.1%,4.0%,1.1,i,0.8,8.9%,-7.2%
Cc1ccc(CSc2nc3ccccc3cc2C=O)cc1,3.6%,-5.8%,-0.4%,1.1,i,0.0,19.6%,-0.3%
COc1cccc(NC(=O)N(C2CCCCC2)C(C)c2cccs2)c1 (centres undefined),-0.1%,-3.0%,0.3%,1.1,i,1.1,-3.1%,-9.5%
Cc1ccc(/C=C/C(=O)Nc2cc(C)on2)cc1,-13.9%,-26.1%,-0.7%,1,i,0.9,0.7%,-3.1%
O=c1[nH]c(CSc2nnc(-c3ccccc3)n2C2CCCCC2)nc2ccccc12,-3.3%,-4.6%,0.3%,1.1,i,1.1,1.9%,-3.3%
COc1cccc(C2=NOC(C(=O)NC(C)C)C2)c1 (centres undefined),5.2%,-1.8%,0.7%,1,i,5.8,8.5%,-9.0%
c1ccc(-c2n[nH]c(-c3ccccc3)c2-c2nc3ccccc3[nH]2)cc1,-2.1%,-0.1%,-0.8%,0.8,i,0.4,3.8%,-2.7%
Cc1cc(C)c2c(-n3cccc3)c(C(=O)NNS(=O)(=O)c3ccc(Cl)cc3)sc2n1,9.2%,-3.5%,-4.4%,1,i,0.6,?,1.4%
S=C1NCCOCCOCCOCCN1,-0.4%,-7.3%,1.0%,1,i,0.5,2.3%,-3.5%
Cc1[nH][nH]c(=O)c1C(c1c(C)[nH][nH]c1=O)c1cn(Cc2cccc3ccccc23)c2ccccc12,19.8%,-1.6%,-1.8%,1.1,?,.,14.2%,-2.3%
CCCCCn1c(SCc2ccncc2)nc2cc(C(=O)NCc3ccco3)ccc2c1=O,-1.2%,-2.7%,20.8%,1.1,i,0.7,7.8%,5.0%
CCCS(=O)(=O)N1CCC(C(=O)NCCCOC)CC1,-14.8%,-3.6%,-0.5%,1.1,i,1.3,-3.8%,-9.4%
Cc1cccc(-n2nnc(C(=O)NCc3ccco3)c2N)c1,23.3%,2.0%,5.2%,1,i,1.4,0.8%,-4.9%
O=C(Nc1cnc2ccccn2c1=O)c1ccc(Cl)cc1,-3.8%,-2.0%,-4.6%,1.1,i,6.6,4.2%,-6.4%
Cc1ccc(C(=O)Nc2ccccc2-c2ccccc2)cc1S(=O)(=O)Nc1cccc(C)c1C,3.0%,-9.0%,1.8%,1,i,3.1,11.9%,2.6%
COC(=O)CSc1nnc2n(C3CCCCC3)c(=O)c3c4c(sc3n12)CCCC4,-3.8%,-1.8%,14.2%,1.1,i,0.5,6.5%,12.1%
O=C(c1cccnc1)N1CCN(Cc2cccc(F)c2)CC1,10.4%,-14.9%,-2.9%,1,i,0.8,-2.9%,-5.0%
Cc1cccnc1NC(=S)NC(=O)c1cccs1,-3.9%,-6.1%,2.9%,0.9,i,5.7,3.2%,-4.2%
N#CCCn1ncc2ccccc21,-8.2%,-2.5%,-0.5%,1.1,i,0.7,-5.8%,-4.7%
O=S(=O)(NCCSCc1c(Cl)cccc1Cl)c1ccc2c(c1)OCCO2,-0.1%,-5.2%,-1.5%,1.2,i,0.8,-1.1%,-4.8%
Cc1ccc(Oc2nnc(-c3ccccc3)cc2C#N)cc1,2.7%,-3.7%,0.6%,1.1,i,0.3,-2.8%,1.4%
CCc1ccc(NC(=O)CC2C(=O)Nc3c2c(=O)n(C)c(=O)n3C)cc1 (centres undefined),5.5%,-2.5%,2.3%,1,i,3.7,3.7%,-7.0%
Cc1ccc(Sc2cc(N3CCOCC3)nc(-c3ccccc3)n2)cc1,-6.1%,-2.0%,-1.5%,1,i,0.3,-3.0%,6.3%
O=C(O)c1c[nH]c(=S)n1-c1ccc(F)cc1,12.4%,-0.5%,-2.2%,1,i,0.5,-3.9%,-2.8%
O=C1COc2ccc(OCc3ccc(F)cc3)cc21,1.6%,-2.9%,-1.5%,1.1,i,14.6,6.5%,-8.5%
Cc1ccc2nc(NC(=O)COC(=O)c3ccc(Br)o3)sc2c1,-1.6%,-0.3%,-2.5%,1,i,0.5,-2.1%,-5.6%
COc1ccc(-c2c(C)n([O-])c3c([n+]2=O)CCCC3)cc1,6.1%,-7.3%,1.6%,1,i,0.6,9.2%,-0.5%

# One compound at a time, as listed above. Values in the order: M17LAP inhibition	XIAP antagonists	CSM14.1 death rescue	TNAP activators	Myeloid diff MLP	Myeloid diff MLP GFP+ MAC1+ %	P. falciparum M1AAP	LYP phosphatase
# `Cc1cc(O)c(/C=N/Nc2ccc(Cl)cc2)c(=O)o1` is listed with 14.5%	-6.1%	4.0%	1.1	i	0.8	8.9%	-7.2%
# `O=C1COc2ccc(OCc3ccc(F)cc3)cc21` is listed with 1.6%	-2.9%	-1.5%	1.1	i	14.6	6.5%	-8.5%
# `CCc1ccc(NC(=O)CC2C(=O)Nc3c2c(=O)n(C)c(=O)n3C)cc1` (centres undefined) is listed with 5.5%	-2.5%	2.3%	1	i	3.7	3.7%	-7.0%
# `CCCCCn1c(SCc2ccncc2)nc2cc(C(=O)NCc3ccco3)ccc2c1=O` is listed with -1.2%	-2.7%	20.8%	1.1	i	0.7	7.8%	5.0%
# `Cc1ccc(/C=C/C(=O)Nc2cc(C)on2)cc1` is listed with -13.9%	-26.1%	-0.7%	1	i	0.9	0.7%	-3.1%
